High-throughput results: PubChem, ICCB-Longwood Screening Facility, Harvard Medical School
MenB inh = M. tuberculosis MenB inhibitors, primary screen, biochemical, absorbance; 1,4-dihydroxy-2-naphthoyl-CoA synthase (Mycobacterium tuberculosis (strain ATCC 25618 / …; MenB enzyme assay, absorbance read-out; some hits fall short of the stated cut; inhibition, %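 (about 12 µg/mL by stock and volumes)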; 0.43% of 100,000 active; AID 540299, 2011;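 active = mean of two replicates above 30%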;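 also: 0% = no compound and 100% = wells with inactive enzyme; the first replicate is given; strong numbers were not always called active; inactives centre near -10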
MbtI inh = MbtI salicylate synthase inhibitors, primary screen, biochemical, fluorescence intensity | P9WFX0 | purified MbtI enzyme, fluorescence intensity read-out | inhibition, %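 (about 17 µg/mL by stock and volumes)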 | 0.89% of 100,000 active | AID 493033, 2011;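 active = above 50% in both replicates, above 80% if mildly self-fluorescent; inactive = the rest, strongly fluorescent compounds included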;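 also: 0% = mean of negative and 100% = mean of positive controls; one replicate is shown; some compounds called inactive have numbers as strong as hits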
Target sequence (P9WFX0 whole entry, looked up): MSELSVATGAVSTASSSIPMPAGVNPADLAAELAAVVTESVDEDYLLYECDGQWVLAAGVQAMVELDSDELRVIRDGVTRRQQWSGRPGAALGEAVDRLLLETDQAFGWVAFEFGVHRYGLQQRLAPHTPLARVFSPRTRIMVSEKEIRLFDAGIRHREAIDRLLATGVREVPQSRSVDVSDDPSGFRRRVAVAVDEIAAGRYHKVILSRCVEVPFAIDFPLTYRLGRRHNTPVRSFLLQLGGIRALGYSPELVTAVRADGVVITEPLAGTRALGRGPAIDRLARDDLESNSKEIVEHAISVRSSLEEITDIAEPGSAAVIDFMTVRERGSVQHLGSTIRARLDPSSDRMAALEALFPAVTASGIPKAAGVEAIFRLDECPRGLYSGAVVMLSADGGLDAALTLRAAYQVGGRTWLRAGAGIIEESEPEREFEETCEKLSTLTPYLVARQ
PV pol inh = poliovirus RdRp elongation inhibitors, primary screen, biochemical, fluorescence polarization, total intensity; Genome polyprotein (Poliovirus type 1 (strain Mahoney)), P03300; % elongation, % (compound at 16.7 µg/mL); AID 588519, 2011; poliovirus polymerase elongation; stronger effect = lower value; 0.66% of 150,000 active; in the data active = % elongation below about 90%; also: some results filed as inactive read as strong as hits
PV pol inh intensity = also measured in PV pol inh; calls as there; % elongation; measured here: total intensity read-out; formula for this scale not given here;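 total fluorescence in place of polarization; lower means less elongation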
Starred values were filed as active, the others as inactive; · = no result given.

smiles,MenB inh,MbtI inh,PV pol inh,PV pol inh intensity
CCOc1ccccc1C1C=CCC1 (stereo not drawn),·,-1,103,106
c1ccc(-c2ccc3ccccc3n2)nc1,3,·,109,113
CC(=O)Nc1nonc1N1CCCC1=O,0,·,103,107
CSc1nc2ccccc2n1CN(C)Cc1ccc(Cl)s1,-19,-8,97,96
CCC(=O)N(CC)Cc1cc2ccccc2[nH]c1=O,-49,83,102,101
COc1cc(/C=N/N2CCCCC2)ccc1OC(=O)c1cccnc1,-11,-4,106,106
O=S(=O)(c1ccc(F)c(Cl)c1)N1CCN(Cc2ccc3c(c2)OCO3)CC1,3,4,102,101
CNCc1ccc2ccccc2c1,3,-27,103,111
Cc1cc(C)nc(NCC(C)c2ccccc2)n1 (stereo not drawn),-29,79,103,101
CCCN1C(=O)c2ccc(-c3nc4cc(Cl)ccc4c(=O)o3)cc2C1=O,-33,-16,102,102
CC(C)N(C(=O)c1cccs1)C(C)C,39,-8,100,101
CC1CN(C(=O)COC(=O)c2n[nH]c3ccccc23)CC(C)O1 (stereo not drawn),-32,105,103,108
COc1ccc(C2C(C#N)=C(N)OC3=C2C(=O)CCC3)cc1 (stereo not drawn),-19,11,102,102
CC(=O)Nc1ccc2nc(NC(=O)c3cc4ccccc4o3)sc2c1,-74,-9,104,98
CC(=O)Nc1c(C(=O)N2CCN(C)CC2)oc2ccccc12,5,28,101,101

Continuation.
smiles,MenB inh,MbtI inh,PV pol inh,PV pol inh intensity
Cn1cccc1C(=O)OCC(=O)c1cc2ccccc2o1,-37,1,129,136
CN1/C(=C\C(=O)CSc2nnc(-c3ccccc3)o2)C(C)(C)c2ccccc21,2,-7,100,102
Cc1cc(C(=O)N2CCCCCC2)cs1,5,-17,101,103
O=C(c1cccs1)N1CCN(C/C=C/c2ccccc2)CC1,43*,-7,101,101
CC1=C(C(=O)C(F)(F)F)CCC(=O)N1CCCN1CCCC1=O,4,-10,99,110
CCCC(=O)N1CCN(c2ccc(NC(=O)c3cccc(C)c3OC)cc2Cl)CC1,-15,-22,99,103
Cc1noc(C)c1CN1C(=O)NC2(CCCc3sccc32)C1=O (stereo not drawn),-29,-1,99,105
O=C1CC2(CCN(C(=O)Nc3ccccc3)CC2)Oc2ccccc21,-9,27,103,106
O=C(NCCCc1ccccc1)C1CCCN(S(=O)(=O)N2CCCCC2)C1 (stereo not drawn),5,-2,102,97
CCN(CC)c1nc2ccccc2s1,·,19,103,100
Cc1nc(C(=O)NNc2ccc(F)cc2)c(C(F)(F)F)o1,-26,-5,102,95
COC(=O)c1oc2ccccc2c1O,-9,106,103,103
O=C1CCCC2=C1C(c1ccc(OC(F)F)cc1)C1=C(CCCC1=O)N2,-61,104,100,104
Cc1ccc2c(c1)c1nc3ccccc3nc1n2CC(=O)OCc1ccccc1,-3,2,102,105
COc1ccc(N2CCN(C(CNC(=O)Oc3ccccc3)c3cccnc3)CC2)cc1 (stereo not drawn),-5,3,99,106

Arranged by molecular weight (highest first): part of the list above
smiles,MenB inh,MbtI inh,PV pol inh,PV pol inh intensity
Cc1nc(C(=O)NNc2ccc(F)cc2)c(C(F)(F)F)o1,-26,-5,102,95
Cc1cc(C(=O)N2CCCCCC2)cs1,5,-17,101,103
CCN(CC)c1nc2ccccc2s1,·,19,103,100

Later entries.
smiles,MenB inh,MbtI inh,PV pol inh,PV pol inh intensity
C=C(CO)C1Cc2c(ccc3c(=O)c4c(oc23)COc2cc(OC)c(OC)cc2-4)O1 (stereo not drawn),-8,·,103,109
O=C(CC(C(=O)O)N(Cc1ccccc1)Cc1ccccc1)c1ccc(Cl)cc1 (stereo not drawn),86*,·,96,99
CC(C)NC(=O)Nc1ccc2snnc2c1,0,87,102,104
COc1ccc(CCn2c3c(c(=S)[nH]c2=O)CCC3)cc1OC,-5,·,101,108
Cc1ccc(Nc2nc(Oc3ccc(OCCOc4ccccc4)nn3)nc(N(C)C)n2)cc1,-10,5,102,102
N#CC(C#N)=C(N)C(C#N)Cc1ccc(Cl)cc1 (stereo not drawn),12,-12,100,105
CSc1ccc(-c2nc(CSCC(=O)NC(C)C)c(C)o2)cc1,-9,2,99,104
COc1ccc(C=NCC2(c3ccccc3)CCCC2)c(OC)c1,-6,0,104,97
CCN1CCN(C2=Nc3c(Cl)cc(Cl)c4cccc2c34)CC1,-23,1,·,·
O=C1N/C(=C/c2ccc(-c3ccccc3)o2)C(=O)N1Cc1ccc(Br)cc1,-19,7,101,149
O=C(C1CCN(S(=O)(=O)N2CCCCC2)CC1)N1CCCCC1,7,2,99,104
CN(C)C(CNC(=O)c1ccc(Br)cc1)c1ccco1 (stereo not drawn),14,-8,101,103
CN1CCC(N(C)C(=O)c2ccc(Cl)c(S(=O)(=O)N3CCc4ccccc43)c2)CC1,-40,-4,100,92
C=CCN(Cc1nc(-c2ccc(Cl)cc2)no1)C(=O)C(C)(C)C,-33,3,101,101
O=C(Nc1ccc(Br)cc1)C1CC1,-17,32,99,102

Part of the list above in order of formula weight, low to high:
smiles,MenB inh,MbtI inh,PV pol inh,PV pol inh intensity
COC(=O)c1oc2ccccc2c1O,-9,106,103,103
CCN(CC)c1nc2ccccc2s1,·,19,103,100
CC(C)NC(=O)Nc1ccc2snnc2c1,0,87,102,104
O=C(Nc1ccc(Br)cc1)C1CC1,-17,32,99,102
N#CC(C#N)=C(N)C(C#N)Cc1ccc(Cl)cc1 (stereo not drawn),12,-12,100,105
Cc1nc(C(=O)NNc2ccc(F)cc2)c(C(F)(F)F)o1,-26,-5,102,95
COc1ccc(C=NCC2(c3ccccc3)CCCC2)c(OC)c1,-6,0,104,97
Cc1noc(C)c1CN1C(=O)NC2(CCCc3sccc32)C1=O (stereo not drawn),-29,-1,99,105
COc1ccc(CCn2c3c(c(=S)[nH]c2=O)CCC3)cc1OC,-5,·,101,108
C=CCN(Cc1nc(-c2ccc(Cl)cc2)no1)C(=O)C(C)(C)C,-33,3,101,101
O=C1CC2(CCN(C(=O)Nc3ccccc3)CC2)Oc2ccccc21,-9,27,103,106
CN(C)C(CNC(=O)c1ccc(Br)cc1)c1ccco1 (stereo not drawn),14,-8,101,103
O=C(C1CCN(S(=O)(=O)N2CCCCC2)CC1)N1CCCCC1,7,2,99,104
CSc1ccc(-c2nc(CSCC(=O)NC(C)C)c(C)o2)cc1,-9,2,99,104
O=C1CCCC2=C1C(c1ccc(OC(F)F)cc1)C1=C(CCCC1=O)N2,-61,104,100,104
Cc1ccc2c(c1)c1nc3ccccc3nc1n2CC(=O)OCc1ccccc1,-3,2,102,105
O=C(NCCCc1ccccc1)C1CCCN(S(=O)(=O)N2CCCCC2)C1 (stereo not drawn),5,-2,102,97
C=C(CO)C1Cc2c(ccc3c(=O)c4c(oc23)COc2cc(OC)c(OC)cc2-4)O1 (stereo not drawn),-8,·,103,109
O=C1N/C(=C/c2ccc(-c3ccccc3)o2)C(=O)N1Cc1ccc(Br)cc1,-19,7,101,149
CN1CCC(N(C)C(=O)c2ccc(Cl)c(S(=O)(=O)N3CCc4ccccc43)c2)CC1,-40,-4,100,92
Cc1ccc(Nc2nc(Oc3ccc(OCCOc4ccccc4)nn3)nc(N(C)C)n2)cc1,-10,5,102,102

(more compounds)
Abbreviations – A = MenB inh; B = MbtI inh; C = PV pol inh; D = PV pol inh intensity
c1ccc(-c2cc3cnsc3o2)cc1
  A: -59	B: 24	C: 100	D: 106

CCn1nccc1NC(=O)Cc1ccc(Cl)cc1
  A: -7	B: 7	C: 102	D: 103

O=C(O)C1C2C=CC(C2)C1C(=O)NCCCN1CCOCC1 (stereo not drawn)
  A: 23	B: 7	C: 104	D: 102

O=C(Cc1cccc(C(F)(F)F)c1)OCC(=O)N1CCCCCC1
  A: ·	B: -12	C: 102	D: 105

O=C(Nc1nccs1)c1cccc(S(=O)(=O)N2CCCC2)c1
  A: -27	B: -44	C: 106	D: 111

COc1cc(/C=C/C(=O)O)cc(S(=O)(=O)NCCO)c1OC
  A: -14	B: 103	C: 103	D: 102

Cc1cc(-c2ccc(C)c(S(=O)(=O)N3CCCc4ccccc43)c2)on1
  A: 7	B: 18	C: 101	D: 100

COc1ccccc1NC(=O)C(C)Sc1nc(C)cs1 (stereo not drawn)
  A: -34	B: -5	C: 101	D: 97

CCCNC(=O)Nc1ccc2c(c1)N(C)C(=O)c1ccccc1S2
  A: -9	B: -14	C: 101	D: 102
